RanGTP-Imp inh: inhibitors of RanGTP-importin-beta interaction, primary screen, biochemical, FRET, CFP-Ran, YFP-importin-beta, homogeneous; inhibition, % (no concentration beside the values); cell-free CFP-Ran/YFP-importin-beta FRET ratio; 300,000 tested, 1.1% active; AID 2216;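 active = most replicates above 15%; inconclusive = exactly half above 15%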;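 note: 0% = DMSO wells and 100% = Ran loaded with GDP instead of GTP; wells of about 40 µL received 100 nL stock; the first replicate is given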
UCH37 DUB inh: blocks the human deubiquitinase UCH37 | Q9Y5K5 | purified proteasome/UCH37, Ub-AMC cleavage fluorescence | inhibition, % (test concentration not listed) | 330,000 tested, 0.33% active | AID 588478;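 active = mean of two replicates above 20%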;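 note: 0% = compound-free wells with enzyme and 100% = wells lacking proteasome; stock transfer was 100 nL into about 20 µL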
Target sequence (Q9Y5K5 whole entry, looked up): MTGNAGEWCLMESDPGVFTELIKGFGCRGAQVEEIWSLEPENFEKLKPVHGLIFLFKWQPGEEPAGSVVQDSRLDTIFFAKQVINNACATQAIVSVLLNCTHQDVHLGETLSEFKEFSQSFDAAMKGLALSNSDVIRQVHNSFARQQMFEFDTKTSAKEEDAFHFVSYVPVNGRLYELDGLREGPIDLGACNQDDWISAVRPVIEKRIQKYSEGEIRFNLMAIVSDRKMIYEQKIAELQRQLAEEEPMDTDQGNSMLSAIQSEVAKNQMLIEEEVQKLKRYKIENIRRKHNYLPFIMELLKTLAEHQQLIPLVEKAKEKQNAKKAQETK
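Material: Human UCH37 enzyme supplied as purified proteasome complex | Schedule: 30 min compound-proteasome preincubation then 25 min substrate reaction, room temperature | Detection: AMC fluorescence from Ub-AMC cleavage, excitation 355 nm, emission 460 nm | Benchmarks: Wells without proteasome as full block, compound-free enzyme plus substrate as uninhibited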
FGF22 binding: FGF22 (human) thermal shift binding. Q9HCT0. recombinant FGF22 thermal shift, SYPRO orange fluorescence; percent of sucrose octasulfate shift, DMSO zero. calls only at 9.99 µM. 340,000 tested, 1.5% active;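 active = melting point raised past a set limit in the mean and every replicate; inconclusive = no clear call; three in four hits are not shown here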
Target sequence (Q9HCT0 whole entry, looked up): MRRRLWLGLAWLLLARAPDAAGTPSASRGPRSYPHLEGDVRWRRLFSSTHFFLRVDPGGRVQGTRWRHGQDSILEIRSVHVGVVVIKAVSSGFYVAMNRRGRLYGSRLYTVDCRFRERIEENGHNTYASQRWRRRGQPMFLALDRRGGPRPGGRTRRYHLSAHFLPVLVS
E coli growth: inhibitors of Escherichia coli growth | 330,000 tested, 0.21% active | OD600 absorbance (test concentration not listed) | AID 1053175 | OD600, 23 h; hits give low values;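 active = OD600 absorbance below the run mean of sample wells minus 3.6 SD, in any replicate, cut at about 0.56 in these data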;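 note: stock transfer was 300 nL into about 60 µL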
Vif A3G: HIV-1 Vif–A3G interaction blockers – biochemical, TR-FRET, GST-Vif 1-94, biotin-A3G peptide, dose response retest, primary screen (AID 1117319) | TR-FRET GST-Vif / biotin-A3G peptide binding; higher % means a stronger effect; test concentration not given here; strong numbers were not always called active | inhibition, %; hits with a dose series show IC50 in µM | 260,000 tested, 0.57% active;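 active = above the screen mean plus three standard deviations and confirmed in dose response; inconclusive = results disagree or hit not tested in dose response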;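 note: Vif residues 1-94 fused to GST binding biotinylated APOBEC3G peptide 110-148; 0% = full assay without inhibitor and 100% = GST in place of GST-Vif; retest series ran down from 100 µM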
HNF4A DNA FP: change in binding of human HNF4 alpha to DNA; P41235; HNF4a-FITC DNA binding, fluorescence polarization, 1 h; activity change, % at 10 µM; 360,000 tested, 0.3% active; AID 1224865; in the data active = activity change above about 30%, passing the limit was not always enough;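 note: controls were the assay level and a saturating level of protein; the project sought stronger binding though the title names inhibitors; some compounds called inactive have numbers as strong as hits; positive values seem to mean higher polarization but the record does not say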
AF4-AF9 inh: MLL-AF4/AF9 protein interaction inhibition. P42568. AlphaScreen, biotin-AF4 peptide binding to FLAG-AF9. inhibition, % at 10 µM. 350,000 tested, 0.47% active;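 active = every replicate reaching a set inhibition limit, whatever the replicate mean, cut at about 25% in these data; inconclusive = mean inhibition reaches that limit but some replicates miss it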;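 note: 0% = plate neutral control median and 100% = total signal loss; the record names both 10 and 1 µM as test concentration; the first replicate is given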
Active calls of the source: *; i = inactive; ? = inconclusive; nt = not tested or not shown; & = joins results of further samples.

SMILES | RanGTP-Imp inh | UCH37 DUB inh | FGF22 binding | E coli growth | Vif A3G | HNF4A DNA FP | AF4-AF9 inh
CCCCN1CC(COCc2ccccc2)Oc2ccccc2S1(=O)=O (centres undefined) | nt | 0.1 | i | 0.7 | -6% | 3.5 | -1.9
CC(NC(=O)c1cccs1)c1nnc(SCc2ccc(Cl)cc2Cl)n1C (centres undefined) | 1.5 | 3.0 | i | 0.69 | -1% | 2.1 | 10
C=CCSc1nc(C)c(CCC(C)C)c(=O)[nH]1 | 1.4 | 5.1 | i | 0.7 | nt | -0.8 | -2.2
CN1CCN(CC(=O)Nc2ccccc2Oc2ccccc2)CC1 | 3.1 | -0.8 | i | 0.68 | -12% | -2.9 | 0.4
CSc1ccccc1NC(=O)COC(=O)c1cnc(C)cn1 | nt | -0.1 | i | 0.66 | nt | 1.6 | 0.5
COc1ccc(NC(=O)C2CC(c3ccc(Cl)cc3)=NO2)cc1OC (centres undefined) | 4.9 | nt | i | nt | -1% | 2.2 | 0.8
Cc1cccc(N2C(=O)CC(N3CCC(c4nc5ccccc5[nH]4)CC3)C2=O)c1 (centres undefined) | 1.9 | 0.9 | nt | 0.7 | 1% | 1.6 | nt
C=CC[n+]1c(-c2ccc(C)cc2)csc1Nc1c(C)n(C)n(-c2ccccc2)c1=O | -0.2 | 1.9 | nt | 0.64 | 13% | -1.6 | 6.5
Cc1ccccc1OCc1nnc(SCC(=O)Nc2c(C)n(C)n(-c3ccccc3)c2=O)n1-c1ccccc1 | nt | 4.2 | i | 0.68 | 3% | 2.0 | 0.9
CCN(CC)CCn1c(=S)[nH]c2cc(C(=O)N3CC(C)CC(C)C3)ccc2c1=O (centres undefined) | 0.7 | -1.1 | i | 0.68 | nt | -4.2 | -14

The closing 2 entries of the section above come first, to join the parts.
SMILES | RanGTP-Imp inh | UCH37 DUB inh | FGF22 binding | E coli growth | Vif A3G | HNF4A DNA FP | AF4-AF9 inh
Cc1ccccc1OCc1nnc(SCC(=O)Nc2c(C)n(C)n(-c3ccccc3)c2=O)n1-c1ccccc1 | nt | 4.2 | i | 0.68 | 3% | 2.0 | 0.9
CCN(CC)CCn1c(=S)[nH]c2cc(C(=O)N3CC(C)CC(C)C3)ccc2c1=O (centres undefined) | 0.7 | -1.1 | i | 0.68 | nt | -4.2 | -14
Cc1ccc(S(=O)(=O)/N=C(/Nc2ccc([N+](=O)[O-])cc2)c2ccccc2)cc1 | 5.9 | 1.6 | i | 0.62 | nt | 1.1 | -0.9
Cc1ccc(S(=O)(=O)N2CCN(S(=O)(=O)N3CCOCC3)CC2)cc1 | -0.6 | 0.0 | nt | 0.68 | 4% | -0.1 | nt
O=S(=O)(Nc1ccccn1)c1ccc(C2CCCCC2)cc1 | -2.5 | -0.1 | nt | 0.66 | -4% | 2.5 | nt
O=C(CSc1ncn[nH]1)c1cccc([N+](=O)[O-])c1 | 1.9 | -2.6 | i | 0.7 | nt | 1.1 | -2.4
O=C(c1ccccc1Cl)N1CCN(c2ccccn2)CC1 | 3.0 | -2.2 | nt | 0.73 | 5% | -0.6 | nt
CCOC(=O)Cc1nnc(Nc2cccc(C)c2)c2ccccc12 | -3.4 | -2.0 | nt | 0.69 | -4% | -1.8 | nt
Cc1cc(C)nc(NC(=NCCc2c[nH]c3ccccc23)NC(=O)c2ccco2)n1 | 1.8 | 0.6 | nt | nt | 1% | -2.3 | nt
CC1CCN(C(=O)C2CCN(S(=O)(=O)N3CCC4(CC3)OCCO4)CC2)CC1 | 2.7 | 4.0 | i | 0.7 | nt | -2.7 | -0.4
CCN1C(=O)CC(c2ccco2)Sc2ccccc21 (centres undefined) | -0.4 | 0.2 | nt | 0.75 | ? | 4.2 | nt
Cn1nnnc1SCC(=O)c1ccc2c(c1)OCCO2 | -1.8 | 3.0 | i | 0.63 | ? | -2.7 | -1.6
CC1(C)CC(=O)C2=C(C1)N(c1ccccc1)C(N)=C(C#N)C2c1ccccc1 (centres undefined) | 5.9 | -2.4 | nt | 0.71 | 30% | 0.8 | nt
Cn1nc(-c2ccc(Cl)cc2)c2cc(C(=O)N3CCN(C(=O)c4ccco4)CC3)sc21 | -4.0 | 2.6 | i | 0.74 | 73% | 1.8 | 4.4
C[C@@H]1CN([C@@H](C)CO)C(=O)c2cccc(NC(=O)C3CCOCC3)c2O[C@H]1CN(C)S(=O)(=O)c1ccc(Cl)cc1 | nt | 0.7 | i | 0.76 | nt | -4.6 | -2.7&-5.5
O=C(CN1C(=O)S/C(=C\c2ccccc2Cl)C1=O)NCCCn1ccnc1 | 3.8 | 2.6 | i | 0.65 | nt | 4.5 | 2.9
C#CCOCCOCCOCCNc1nc(N2CCN(C(=O)[C@H](CCCCN)n3cc(CN)nn3)CC2)nc(N2CCN(C(=O)[C@H](CCC(=O)O)n3cc([C@@H](N)CCCCN)nn3)CC2)n1 | nt | 3.5 | i | nt | nt | 92* | 74*
COC(=O)Cc1c(C)c2ccc(OCC(=O)N(C)C3CCS(=O)(=O)C3)cc2oc1=O (centres undefined) | 1.0 | -190 | i | 0.63 | 0% | -0.1 | -1.0
COc1ccccc1N1CCN(C(=O)C(NS(=O)(=O)c2cccs2)c2ccccc2)CC1 (centres undefined) | nt | 1.1 | nt | 0.67 | 1% | 8.1 | nt
COc1ccc(-c2cc(CNc3nc(NCc4ccccc4OC)nc4ccsc34)on2)cc1 | nt | nt | i | nt | nt | 4.7 | 1.5
O=C(CCN1CCN(c2ccccc2)CC1)N/N=C/c1ccc(O)c(O)c1O | -3.8 | nt | i | nt | 1µM* | -7.6 | -2.0
OCCC1CN(C/C(Cl)=C/c2ccccc2)CCN1C1CCCC1 (centres undefined) | ? | 2.8 | i | 0.64 | -1% | 0.7 | -0.9
N#Cc1nnn(-c2cc(Cl)cc(Cl)c2)c1N | 7.1 | 0.1 | i | 0.68 | -8% | -1.6 | -2.5
COc1cccc(C(=O)NNC(=O)C(=O)Nc2ccc(C)cc2)c1 | -3.6 | nt | i | nt | nt | 0.4 | -1.5
COc1c(C(=O)NNC(=O)c2ccccc2Cl)csc1Br | 1.4 | 0.7 | i | 0.65 | -11% | -0.3 | nt
CCOC(=O)c1c(NC(=O)CCN2CCOCC2)sc2c1CC(C)(C)OC2 | 4.0 | 5.0 | nt | 0.67 | -1% | -4.1 | nt
CC(=O)Nc1ccccc1-c1nnn(CC(=O)Nc2ccc3c(c2)OCCO3)n1 | 2.1 | 1.1 | i | 0.73 | 1% | -4.5 | -1.9
COc1ccc(NC(=O)c2cc3ccccc3oc2=O)cc1 | nt | nt | i | nt | -5% | -1.5 | -0.4
O=C(Cc1c(O)c2ccccc2[nH]c1=O)NC1CCCCCC1 | 5.3 | -2.1 | nt | 0.67 | 4% | -1.1 | nt
Cc1cccc(CC2(O)C(=O)Nc3ccccc32)n1 (centres undefined) | nt | nt | i | nt | -4% | -1.9 | -2.0
CC(C)OC(=O)c1ccc(COC(=O)CNC(=O)c2ccco2)cc1 | ? | 3.5 | i | 0.69 | nt | -1.5 | -13
COc1ccc(C(=O)Nc2ccc3c(c2)nc(CCNC(C)=O)n3C)cc1 | 7.7 | -3.9 | nt | 0.73 | 4% | -0.2 | nt
O=C(Nc1ccccc1Cl)Nc1cccc2cccnc12 | -4.3 | 3.1 | i | 0.64 | 2% | 0.6 | -1.7
Cc1ccc(C(=O)N/C(=C\c2ccc(-c3ccccc3[N+](=O)[O-])o2)C(=O)NCCCN2CCOCC2)cc1 | -3.2 | 18 | i | 0.69 | nt | -5.1 | 12
O=C(CSc1nnc(CNc2ccc(F)cc2)n1Cc1ccco1)N1CCOCC1 | 3.9 | 2.0 | nt | 0.69 | 1% | 2.6 | nt
CCOC(=O)C1CCN(Cc2nc3ccc(Cl)cc3n2CCO)CC1 | -1.8 | 4.7 | nt | 0.69 | 0% | 5.3 | nt
COc1ccccc1NC(=O)c1cc(S(=O)(=O)N2CCCC2)cn1C | 2.5 | 1.3 | i | 0.65 | nt | 2.5 | -0.9
S=C(NC1CCCCC1)N1CCn2cccc2C1c1cccnc1 (centres undefined) | 0.4 | -0.1 | i | 0.69 | 12% | -0.9 | 5.6
CC(C)n1cc(CN2CCC(Oc3ccc(C(=O)N4CCCCC4)cc3)CC2)cn1 | 0.0 | -0.9 | i | 0.74 | nt | 3.5 | 1.1

Grouped by structure: the entries above containing an aryl thioether with sulfur outside any ring.
SMILES | RanGTP-Imp inh | UCH37 DUB inh | FGF22 binding | E coli growth | Vif A3G | HNF4A DNA FP | AF4-AF9 inh
CC(NC(=O)c1cccs1)c1nnc(SCc2ccc(Cl)cc2Cl)n1C (centres undefined) | 1.5 | 3.0 | i | 0.69 | -1% | 2.1 | 10
C=CCSc1nc(C)c(CCC(C)C)c(=O)[nH]1 | 1.4 | 5.1 | i | 0.7 | nt | -0.8 | -2.2
CSc1ccccc1NC(=O)COC(=O)c1cnc(C)cn1 | nt | -0.1 | i | 0.66 | nt | 1.6 | 0.5
Cc1ccccc1OCc1nnc(SCC(=O)Nc2c(C)n(C)n(-c3ccccc3)c2=O)n1-c1ccccc1 | nt | 4.2 | i | 0.68 | 3% | 2.0 | 0.9
O=C(CSc1ncn[nH]1)c1cccc([N+](=O)[O-])c1 | 1.9 | -2.6 | i | 0.7 | nt | 1.1 | -2.4
Cn1nnnc1SCC(=O)c1ccc2c(c1)OCCO2 | -1.8 | 3.0 | i | 0.63 | ? | -2.7 | -1.6
O=C(CSc1nnc(CNc2ccc(F)cc2)n1Cc1ccco1)N1CCOCC1 | 3.9 | 2.0 | nt | 0.69 | 1% | 2.6 | nt

Not all compounds are listed; count on the stated rates, not on these rows.
